Screening results deposited in PubChem by Fisher Drug Discovery Resource Center.
NPYLR7 ag = mosquito NPYLR7 agonism; HEK293T NPYLR7/Galpha15, GCaMP6s calcium fluorescence; activation, % at 10 µM; actives 0.15% (n = 270,000); in the data active = activation above about 40%;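 also: 0% = vehicle and 100% = reference agonist at the receptor; some compounds past the cut are filed as inactive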
NPYLR7 ag max-min = second read-out of NPYLR7 ag, no call of its own (marks repeat the call); activation, %; measured here: Max-Min RFU normalised activation; some inactives read as strong as hits;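 span of the calcium signal over five minutes; 0% = vehicle and 100% = native peptide agonist; compound fluorescence can raise it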
The depositor's hits bear a star; & = joins results of further samples. The list is partial (hit frequency here may not be typical).

SMILES	NPYLR7 ag	NPYLR7 ag max-min
CC(c1ccc(NC(=O)CNC(=O)C2CC2)cc1)N1CCOCC1 (stereo not given)	21.1	19.5
CCC(C)Cn1c(CCNC(=O)c2ccco2)nc2ccccc21 (stereo not given)	6.7	11.2
Cc1ccsc1CN(Cc1cccc(C(F)(F)F)c1)Cc1nc(C(=O)NCCN(C)C)co1	22.4	39.7
COc1ccc(C(CC(=O)N(C)Cc2cc(C3CC3)n[nH]2)c2ccccc2)cc1 (stereo not given)	16.4	8.1
COc1c(C)cc(C(=O)N2CCOC(c3ccccc3)C2)cc1C (stereo not given)	25.0	24.0
Cn1ccnc1SCc1cc(=O)c(OC(=O)c2ccco2)co1	-6.8	-9.9
CCCS(=O)(=O)Nc1ccc(N(C)C)c(CN(CC2CCCO2)C(=O)NC(C)(C)C)c1 (stereo not given)	4.6	2.5
Nc1cccc(-c2cc(Nc3ccc4[nH]ccc4c3)ncn2)c1	3.2	0.8
CC1CCc2nc3ccccc3c(C(=O)OCC(=O)NC(=O)NC(C)C)c2C1 (stereo not given)	1.9	-0.5
Cc1ccc(N2CCN(C(=O)c3snc4c(=O)n(CC(C)C)c(=O)[nH]c34)CC2)c(C)c1	-9.1	-8.6
CCNC(=O)c1c(C)c(C(=O)OCC)n(CC)c1C	4.6	17.5
Nc1ccc(NC(=S)NCc2ccco2)cc1[N+](=O)[O-]	-3.4	20.1
COc1ccc(-c2nnc3ccc(OCCNC(=O)NC4CCCCC4)nn23)cc1OC	-3.3	-3.7
NC(=O)C1CC2CCCCC2N1c1nc2ccccc2s1 (stereo not given)	14.6	16.0
Cc1ccn(CCNc2nccc(-c3c(C)nn(C)c3C)n2)n1	3.1	0.7
COc1ccc(CNC(=O)CCC2CCCN(C(=O)c3ccsc3)C2)c(OC)c1 (stereo not given)	-0.4	-4.5
Cc1nc2c(=O)n(Cc3ccccc3F)nc(-c3ccc(F)cc3)c2s1	-0.1	-1.7
CC(C)c1ccccc1OC1CC2CCC(C1)N2C(=O)c1ccc(CSc2nc3cc(Cl)ccc3o2)cc1 (stereo not given)	9.1	-5.1
COc1ccc(OC)c(C(C)NS(=O)(=O)c2ccc3c(c2)CCCN3C(C)=O)c1 (stereo not given)	11.9	11.8
CCOc1cc(/C=N\n2c(=O)c(C(C)(C)C)nn3cnnc23)ccc1O	0.1	-2.5
CN(C)S(=O)(=O)c1ccc(F)c(C(=O)OCC(=O)C(C)(C)C)c1	-0.7	4.0
O=c1c(Sc2ccc(Cl)cc2)c(O)c2c(n1-c1ccccc1)CCCC2	0.8	4.8
CCc1nc2c(OCC(=O)C(C)(C)C)cccn2c1N(C)C(=O)c1ccco1	13.6	-1.6
O=c1[nH]cnc2c(Br)cccc12	-3.4	-3.2
O=C(Cn1cnc2sccc2c1=O)NCCc1ccc(Cl)cc1	11.0	3.7
Cc1cccc(Nc2cc3c(cn2)nc(-c2ccco2)n3C)c1	1.6	1.6
Cc1ccc(Cn2c(Cn3ccnc3)nc3ccccc3c2=O)cc1	4.9	1.6
O=C(Oc1ccc(I)cc1)C1COc2ccccc2O1 (stereo not given)	6.0	11.7
C=CCN(CC(=O)N1CCc2sccc2C1COc1ccc(Cl)cc1)C(=O)C1CCCC1 (stereo not given)	4.1	2.0
O=S(=O)(NC1CCN(C2CCOC2)CC1)c1ccc(Cl)nc1 (stereo not given)	8.3	5.3
COc1ccc(CCNC(=O)c2cc(-c3ccc(F)cc3)nc3cc(-c4ccccc4)nn23)cc1OC	-6.5&2.3	2.8&12.5
O=C(c1n[nH]c2c1CCC2)N1CCc2c(c(C(=O)N3CCOCC3)nn2CCCc2ccccc2)C1	18.6	3.7
COc1ccc(OCc2nc(-c3ccc(Br)o3)no2)cc1	-0.7	-2.9
Cn1nc(NC(=O)Cc2ccccc2Cl)c2c1NC(=O)CC2c1cccs1 (stereo not given)	-16.2	-20.6
OCC1(Cc2ccccc2)CCCN(Cc2ccc3c(c2)OCCO3)C1 (stereo not given)	6.7	6.0
CC1(C)N=C(N)N=C(N)N1c1ccc([N+](=O)[O-])cc1	12.1	8.7
Cc1ccccc1CSc1nnc(CNC(=O)Nc2ccc(C#N)cc2)n1-c1cc(Cl)ccc1Cl	15.4	14.2
COc1ccc(OCC(O)CN2CCC(O)CC2)c(CNC(C)C)c1 (stereo not given)	-0.9	-8.1
COc1ccc(NC(=O)c2ccno2)cc1N1CCCCC1=O	-0.2	-1.5
Cc1ccc(N2CC(C(=O)NCCc3ccccn3)CC2=O)cc1 (stereo not given)	0.0	-1.4
OCCCOC1CCN(c2ccc3ccc(F)cc3n2)CC1	6.7	5.1
O=C(CN(Cc1ccco1)C(=O)c1ccc(S(=O)(=O)N2CCCCCC2)cc1)Nc1ccccc1	0.4	2.4
CC(=O)c1cc(C(=O)N2CCCC(C(=O)c3ccc(-c4ccccc4)c(F)c3)C2)cs1 (stereo not given)	25.5	15.2
O=C(c1csc(CSc2nnc(Cc3ccccc3)n2-c2ccc(Cl)c(Cl)c2)n1)N1CCc2ccccc2C1	0.0	7.3
CC1NC(=S)N(c2ccc(C(C)C)cc2)C1=O (stereo not given)	2.5	0.1
CCCCCc1ccc(C(=O)N2CCSC2c2ccc(Cl)cc2Cl)cc1 (stereo not given)	-3.0	4.9
NC(=O)C1Cc2ccccc2N1C(=O)c1cc(=O)c2ccccc2o1 (stereo not given)	-5.9	-7.0
Cc1nnc(SCC(=O)Nc2cc(-c3ccc(Cl)cc3)nn2C)n1C	4.3	0.7
CC(C)c1csc(CN2CCCC(CCNS(C)(=O)=O)C2)n1 (stereo not given)	0.9	1.7
CC(=NNc1nc(C)cc(C)n1)c1cc2c(ccc3ccccc32)o1	-1.1	-4.2
Cc1ccc(/C=C2N=C(/C=C\c3cccc([N+](=O)[O-])c3)OC/2=O)o1	4.0	-2.6
COc1cccc(-c2cc(-c3ccc(C(=O)NCCc4cccc(Cl)c4)cc3)[nH]n2)c1	-0.5	8.4
COc1ccc(OC)c(NC(=O)CSc2ncnc3c2oc2ccccc23)c1	4.9	0.4
Cc1cccc2[nH]c(CCNC(=O)[C@H]3CCCO3)nc12	-1.1	-9.0
NC(=O)CSc1cn(CCNC(=O)c2ccc(Cl)cc2Cl)c2ccccc12	24.7	22.6
Cc1ccc(F)cc1NC(=O)CCNC(=O)OC(C)(C)C	2.1	1.5
CC(=O)Nc1ccc(Nc2cc3c(cn2)nc(-c2ccco2)n3C)cc1	5.2	4.0
Cn1c(=O)[nH]cc(CC(=O)NCc2ccc3[nH]c4c(c3c2)CCCC4)c1=O	5.0	3.3
COc1ccc(C(CC(=O)N2CCN(C(C)=O)CC2)c2c[nH]c3ccccc23)cc1 (stereo not given)	2.2	3.6
COc1ccccc1-n1cc(CNC(=O)c2cn(C3CCCCC3)nn2)cn1	11.7	7.0

Grouped by structure: the compounds so far containing a nitro group on carbon
SMILES	NPYLR7 ag	NPYLR7 ag max-min
Nc1ccc(NC(=S)NCc2ccco2)cc1[N+](=O)[O-]	-3.4	20.1
CC1(C)N=C(N)N=C(N)N1c1ccc([N+](=O)[O-])cc1	12.1	8.7
Cc1ccc(/C=C2N=C(/C=C\c3cccc([N+](=O)[O-])c3)OC/2=O)o1	4.0	-2.6

Sorted by length of the SMILES (largest number first): 17 of the compounds above.
SMILES	NPYLR7 ag	NPYLR7 ag max-min
O=C(c1csc(CSc2nnc(Cc3ccccc3)n2-c2ccc(Cl)c(Cl)c2)n1)N1CCc2ccccc2C1	0.0	7.3
O=C(CN(Cc1ccco1)C(=O)c1ccc(S(=O)(=O)N2CCCCCC2)cc1)Nc1ccccc1	0.4	2.4
CC(=O)c1cc(C(=O)N2CCCC(C(=O)c3ccc(-c4ccccc4)c(F)c3)C2)cs1 (stereo not given)	25.5	15.2
Cc1ccccc1CSc1nnc(CNC(=O)Nc2ccc(C#N)cc2)n1-c1cc(Cl)ccc1Cl	15.4	14.2
COc1ccc(C(CC(=O)N2CCN(C(C)=O)CC2)c2c[nH]c3ccccc23)cc1 (stereo not given)	2.2	3.6
Cn1c(=O)[nH]cc(CC(=O)NCc2ccc3[nH]c4c(c3c2)CCCC4)c1=O	5.0	3.3
NC(=O)CSc1cn(CCNC(=O)c2ccc(Cl)cc2Cl)c2ccccc12	24.7	22.6
COc1ccccc1-n1cc(CNC(=O)c2cn(C3CCCCC3)nn2)cn1	11.7	7.0
COc1ccc(OC)c(NC(=O)CSc2ncnc3c2oc2ccccc23)c1	4.9	0.4
CC1(C)N=C(N)N=C(N)N1c1ccc([N+](=O)[O-])cc1	12.1	8.7
CCCCCc1ccc(C(=O)N2CCSC2c2ccc(Cl)cc2Cl)cc1 (stereo not given)	-3.0	4.9
OCC1(Cc2ccccc2)CCCN(Cc2ccc3c(c2)OCCO3)C1 (stereo not given)	6.7	6.0
COc1ccc(OCC(O)CN2CCC(O)CC2)c(CNC(C)C)c1 (stereo not given)	-0.9	-8.1
Cc1ccc(N2CC(C(=O)NCCc3ccccn3)CC2=O)cc1 (stereo not given)	0.0	-1.4
COc1ccc(NC(=O)c2ccno2)cc1N1CCCCC1=O	-0.2	-1.5
OCCCOC1CCN(c2ccc3ccc(F)cc3n2)CC1	6.7	5.1
CC1NC(=S)N(c2ccc(C(C)C)cc2)C1=O (stereo not given)	2.5	0.1

(continued)
SMILES	NPYLR7 ag	NPYLR7 ag max-min
COc1ccc(C2CC(C(F)(F)F)n3ncc(C(=O)NCc4ccccc4)c3N2)cc1 (stereo not given)	-10.9	-10.0
Cc1ccc(-c2ccnc(-c3ccc(N)nc3)n2)c(C)n1	-2.1	-2.9
O=C(NCCCN1CCCC1=O)C(C1CCCC1)N1CCN(C(=O)c2ccc(F)cc2F)CC1 (stereo not given)	-0.9	3.1
N#C/C(=C/c1ccc(N2CCCCC2)o1)c1cccc(F)c1	63.4*	51.1*
Cc1cccc(OCC(=O)Nc2nc(-c3cccs3)cs2)c1C	0.9	-1.6
NCc1ccc(Cn2cncn2)cc1	7.8&3.8	6.5&11.2
CC1=Nc2ccccc2N=C(C)C1	4.4	3.4
FC(F)(F)c1cccc(N=c2oc3ccc4ccccc4c3cc2-c2nc3ccccc3[nH]2)c1	-3.6	-6.0
CN(CC1=CCCN(CCNC(N)=O)C1)C(=O)C1CCCCC1	5.8	3.0
CN(C(=O)CCN(C)S(C)(=O)=O)C1Cc2ccccc2C1	-8.1	-9.4
COc1cc(NC(=O)c2cnccn2)c(OC)cc1Cl	-5.8	8.7
COc1ccc(C(=O)C2CCCN(C(=O)c3cccc(-c4ccccc4)c3)C2)cc1OC (stereo not given)	0.0&-11.5	-1.1&-14.5
O=C(CCc1c(F)cccc1F)N(CCO)C1CC1	-3.2	-5.5
COC(=O)C(=O)N1CCC(CCc2ccccc2)CC1	26.0	19.7
Cc1cc(=O)c(C(=O)NC2CCOc3ccccc32)nn1-c1ccccc1 (stereo not given)	-22.2	-25.5
Cc1nc(CCNC(=O)CC2COCCN2)sc1C (stereo not given)	-4.3	-5.1
Cc1cc(N2CCCCCC2)n2c(nc3ccccc32)c1C#N	1.7	-1.6
COc1cccc(C2c3[nH]c4ccccc4c3CCN2C(=O)Cc2ccn(C)c2)c1 (stereo not given)	2.6	-1.9
CC(C#N)c1cccc(C(=O)N2CCN(Cc3cccc(-c4noc(-c5cccnc5)n4)c3)CC2)c1 (stereo not given)	-3.3	-6.8
CC(=O)OC(C)(C)C(=O)N1CCN(CCCOC(c2ccc(Cl)cc2)c2ccc(Cl)cc2)CC1	20.4	24.4
Clc1nc2ccc(Br)cc2s1	0.6	-12.9
COc1ccc(C2NC(=O)N(C)C3=C2C(=O)N(C2CCCCC2)C3)cc1 (stereo not given)	3.8	2.9
Cc1cccc(-n2nc(C(C)(C)C)cc2NC(=O)CN(Cc2ccccc2)C(=O)c2cc(C(F)(F)F)cc(C(F)(F)F)c2)c1	-8.3	3.1
COc1ccc(-c2ccc(=O)n(CCNC(=O)NC3CCCCC3)n2)cc1OC	-5.6	-2.4
CCN(CC(C)(C)O)C(=O)COc1ccc(C)cc1OC	7.7	4.9
COCCOC(=NCc1ccccn1)NC(=O)c1ccc(OC)cc1	14.4	15.0
CSCC[C@H]1C(=O)N(CC(=O)NCC2CCCCC2)C[C@@H]2N(Cc3cccnc3)CCC(=O)N21	0.2	-2.4
COc1cc(S(=O)(=O)NCCCn2ccnc2)ccc1Br	-0.8	8.7
COc1ccc(C2(C(=O)N(C)Cc3cnn(C)c3C)CCCC2)cc1	-0.4	-0.8
CCOC(=O)[C@@H]1CN(C(=O)Nc2ccccc2)[C@H]2c3ccccc3O[C@@H]12	0.1	4.2
OCc1cc(-c2cccc(CN3CCOCC3)c2)ccn1	9.0	5.3
CCOC(=O)c1c(N)sc(C(=O)Nc2cccc(OC)c2)c1C	-2.2	-10.5
Cc1ccc(S(=O)(=O)N=c2ccc(Cl)cn2C(F)F)cc1	-7.3	-8.1
O=C1C2CNC3(C(=O)Nc4ccccc43)C2C(=O)N1C1CCCCC1 (stereo not given)	8.3	18.0
COc1ccc(Cc2noc(CN3CCN(c4nc5ccccc5s4)CC3)n2)cc1OC	-7.0	-14.0
COc1ccc(C)cc1NC(=O)C(C)N(C)Cc1ccccc1N1CCOCC1 (stereo not given)	-1.1	-4.3
CC(C)(C)OC(=O)NC(CC(N)=O)C(=O)O (stereo not given)	-4.4	-7.2
